hNpr1 antagonist – Natriuretic polypeptide receptor (hNpr1) antagonism - Primary qHTS; Atrial natriuretic peptide receptor 1 (Homo sapiens), P16066; HEK293 hNpr1 GloSensor cGMP, ANP-stimulated luminescence; Potency, µM (doses to about 46.3 µM), inactives show at the highest dose activity change, negative = inhibition, usual class: inhibitors; actives 1.6% (n = 76,000); active = well fitted inhibition curve with a large enough effect; inconclusive = small, poorly fitted or top-dose-only effect; inactive = no such curve, though single readings can be large or run the other way;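 further: nearly all actives have a fitted effect of over 60% in size; nearly all hits also lower the signal before the agonist is added; a reference antagonist and vehicle were the controls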
Target sequence (P16066 whole entry, looked up): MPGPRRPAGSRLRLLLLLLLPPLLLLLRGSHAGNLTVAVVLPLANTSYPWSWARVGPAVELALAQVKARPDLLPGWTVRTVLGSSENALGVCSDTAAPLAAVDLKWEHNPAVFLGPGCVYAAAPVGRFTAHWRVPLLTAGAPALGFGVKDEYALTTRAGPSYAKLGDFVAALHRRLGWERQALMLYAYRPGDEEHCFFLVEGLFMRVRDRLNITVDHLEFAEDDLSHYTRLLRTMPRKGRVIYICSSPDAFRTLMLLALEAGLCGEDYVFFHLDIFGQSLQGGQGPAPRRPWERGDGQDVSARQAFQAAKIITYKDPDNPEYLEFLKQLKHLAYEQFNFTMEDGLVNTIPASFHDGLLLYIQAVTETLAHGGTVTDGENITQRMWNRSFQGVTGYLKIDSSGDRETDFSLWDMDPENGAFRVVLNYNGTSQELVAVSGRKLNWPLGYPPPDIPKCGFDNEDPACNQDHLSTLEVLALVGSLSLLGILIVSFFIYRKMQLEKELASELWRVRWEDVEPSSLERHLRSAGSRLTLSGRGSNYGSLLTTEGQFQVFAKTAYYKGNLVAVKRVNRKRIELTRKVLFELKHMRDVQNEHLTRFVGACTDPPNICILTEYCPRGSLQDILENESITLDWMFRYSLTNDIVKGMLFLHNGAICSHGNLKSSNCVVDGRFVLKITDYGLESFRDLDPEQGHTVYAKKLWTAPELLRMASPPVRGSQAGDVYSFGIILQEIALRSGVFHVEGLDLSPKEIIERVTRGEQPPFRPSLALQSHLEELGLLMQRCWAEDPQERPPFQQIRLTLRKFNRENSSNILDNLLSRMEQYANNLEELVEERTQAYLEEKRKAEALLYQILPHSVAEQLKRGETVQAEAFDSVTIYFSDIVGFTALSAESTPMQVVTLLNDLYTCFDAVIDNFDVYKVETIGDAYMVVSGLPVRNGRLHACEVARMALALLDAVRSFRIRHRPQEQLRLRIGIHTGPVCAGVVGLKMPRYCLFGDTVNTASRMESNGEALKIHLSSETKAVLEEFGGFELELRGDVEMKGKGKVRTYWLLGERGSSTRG
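Compound pre-incubated 30 min at room temperature on GloSensor-loaded HEK293 cells stably carrying hNpr1 and the pGS-40F cGMP biosensor. Stimulation uses hNppA at 0.1 nM final; luminescence is taken at baseline and 20 min post-agonist.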
An asterisk follows results filed as active; u = inconclusive; & = joins results of further samples; [ ] = another dose, or the depositor's remark. On the % scale 0 is the no-effect control and ±100 the full control effect; potency means the concentration at half of the fitted maximal effect.

SMILES,hNpr1 antagonist
CCC(C(=O)Nc1ccc2c(c1)CN(Cc1ccccc1Cl)C(=O)C(C)O2)c1ccccc1 (configuration not stated),-10.2%
CN1CC2(CCN(Cc3cn(C)c4ccccc34)CC2)CC1C(=O)N1CCOCC1 (configuration not stated),-12.5%
CSCCC(=O)N[C@H]1CN(c2cc(C3CC3)ncn2)C[C@@H]1C1CC1,5.6%
Cc1cc(C(=O)N2CCC3(CC2)CC(c2ccccc2)C(=O)N(C)C3)n[nH]1 (configuration not stated),2.4%
CN1CCCN(S(=O)(=O)c2cccc(Cl)c2)c2ccccc21,-20.4%
COc1ccccc1NC(=O)N1CCc2cc(OC)c(OC)cc2C1CNC(=O)C1CCCC1 (configuration not stated),-1.6%
CN(Cc1ccccc1)c1ncc2c(n1)CC(C)(C)CC2NC1CCOCC1 (configuration not stated),-13.0%
C[S+](=O)([O-])c1cccc(CN2CC(COc3ccccc3)C3(C2)CN(c2ccccc2)C3)c1 (configuration not stated),-20.2%
Cn1cc(CN2CCCC2c2ccccn2)c(-c2ccc(Oc3ccccc3)cc2)n1 (configuration not stated),-5.4%
COc1ccccc1-c1cc2c(ccn2C)c(C(=O)NCC2CCOCC2)n1,3.1%[70.6 µM]
O=C1NCCOCCN(C(=O)COc2ccccc2)[C@H]2CCC[C@@H]12,9.9%
CCn1cc(CN2CCn3c(nnc3[C@@H]3C[C@@H](O)CN3Cc3cccnc3)C2)c(C)n1,0.5%
CCOC(=O)C1=CN(CC(=O)NCCc2ccc(Cl)cc2)S(=O)(=O)N=C1C,-3.1%
Cc1ccc(C2=NC3(CCN(C(=O)c4ccc(F)cc4F)CC3)ON2)cc1,-19.0%
Cc1ccc(CNC(=O)NCCc2ncc(C)n2Cc2ccc(F)cc2)cc1,-15.1%
CC(=O)N1CC2(Cc3ccccc31)CN(C(=O)C1CC1)C2,0.0%&1.8%[70.6 µM]
COCC(=O)N1CCc2cn(CC(C)C)c3cccc(c23)C1,-11.0%
C[C@@H]1C(=O)O[C@H]2[C@H]1CC[C@@]1(C)Cc3sc(NC(=O)NC4CCCCC4)nc3[C@@H](C)[C@H]21,-11.8%[70.6 µM]
COc1ccccc1C(=O)N1CCC(N2CC3CC(C2)[C@H]2CCCC(=O)N2C3)CC1 (some centres not stated),5.3%
CCOC(=O)C1CCN(C(=O)C2COC3(CCCC(C)C3)N2C(=O)c2ccccc2F)CC1 (configuration not stated),-2.4%
CC(C)N[C@@H]1CC[C@@H]1NC(=O)c1ccc(C(F)(F)F)cc1C(F)(F)F,-0.2%
Cc1nn(C)cc1CN(C)CC1(O)CCCN(Cc2cccc(F)c2F)C1=O (configuration not stated),0.7%
CN[C@@H](C)c1nc(C2CCOCC2)nn1CC1CCCCC1,17.1%
Cc1cc(C(=O)N2CCCCCNC(=O)[C@H]3C[C@H](C(=O)N4CCc5ccccc5C4)C[C@H]32)n(C)n1,-8.3%
CCOC(=O)C1(Cc2ccccc2F)CCCN(C(=O)c2cccs2)C1 (configuration not stated),1.2%
Cc1nc(CC2CCN(C(=O)c3ccsc3)CC2)n[nH]1,-3.1%
CCn1cc(S(=O)(=O)N2CCC3(CC2)CC(OCCOC)CCO3)cn1 (configuration not stated),-1.3%
O[C@@H]1CCN(c2nccc(C3(c4ccccc4Cl)CCNCC3)n2)C1,2.7%
CCOc1cc(=O)n2c(c1C(=O)Nc1cccc(OC)c1)CCCCC2,0.7%
Cc1cc2nc(CO[C@H]3CN(Cc4ccccc4F)C[C@H]3F)[nH]c2cc1C,-1.0%[70.6 µM]
Cn1c(CNC(=O)CCc2ccnc(N3CCCC3)c2)nc2ccccc21,1.1%
COCC1CN(C)CC12CCN(Cc1ccc(F)cc1F)CC2 (configuration not stated),-19.0%
CC(C)C1=NOC2(CCN(C(=O)c3ccccc3F)CC2)C1,3.2%[70.6 µM]
COC(=O)c1ccc(CN2C(=O)[C@@H]3C[C@@H](O)CN3C3(CN(Cc4ccc(F)cc4)C3)C2=O)cc1,-0.1%
COc1ccc([C@@H](NC(=O)c2sc(C)nc2C)C2CC(O)C2)cn1 (some centres not stated),-0.6%
C[S+](=O)([O-])N1CCC2(C1)C(=NC1CCCC1)NC(=O)N2c1cccnc1 (configuration not stated),23.0%
COc1ccc(CN(C)C(=O)C2CNCCO2)c2cccnc12 (configuration not stated),-0.7%
COc1ccc(C(=O)N2C[C@@H]3C[C@H](C2)c2c(-c4ccc(NC(C)=O)cc4)ccc(=O)n2C3)cc1,6.9%
COc1ccc(S(=O)(=O)NCCNc2ncnc3c2c(C)nn3C)cc1,-4.5%
O=C(Nc1cccc(C(F)(F)F)c1)N[C@H]1[C@H](O)[C@@H](Sc2ccccc2)[C@@H]2OC[C@H]1O2,-11.3%
O=c1c2c(CO)c(-c3ccccc3)nn2ccn1Cc1ccccc1Cl,-1.5%
Cc1ccccc1C(=O)N1CCCN(c2cc(-c3ccccc3)[nH]n2)CC1,0.0%
O=C1c2c(nc(CNCc3ccc4c(c3)OCO4)n2Cc2ccccc2)NCCN1Cc1ccccc1F,-2.2%
c1ccc(-c2noc(CCNC3CCC4(CCNCC4)CC3)n2)nc1,-13.4%
CCNC(=O)N(C1CC1)C1CCOC2(CCN(C(=O)COc3ccc(F)cc3)CC2)C1 (configuration not stated),-4.9%
COC(=O)[C@@H](Cc1cccnc1)NC(=O)[C@H]1CN(C(C)=O)CCN1C(=O)N1CCOCC1,-6.6%
CC(C)NC(=O)CCC[C@@H]1[C@H]2CCCN3CCC[C@@H](CN1C)[C@@H]23,2.9%
COCC(=O)NC[C@@H]1C=C(C)[C@H](CC(=O)NCc2ccc(F)cc2)C[C@H]1C(C)C,-1.5%[70.6 µM]
O=C(NC1CCN(Cc2ccccc2)CC1)C1CCCN(c2cnc3nccnc3c2)C1 (configuration not stated),8.7%
CC(C)CN1CCC(N2CC(Oc3cccc(C(=O)N4CCCC4)c3)C2)CC1,9.8%
CC(Oc1ccccc1)C(=O)Nc1cnc(-c2cccc(Cl)c2)nc1 (configuration not stated),-22.6%
COc1cc(F)ccc1-c1cnc2n[nH]c(-c3ccccc3)c2n1,-16.0%[70.6 µM]
O=C(NC1CCc2nnc(C3CC3)n2CC1)c1cccs1 (configuration not stated),-3.1%
COc1ccc(CNC(=O)CC[C@]23CC[C@](C)(O)C[C@H]2C(C)(C)C[C@@H]3NC(=O)c2cccc(F)c2)cc1,5.0%
COc1ccc(-c2noc([C@@H](C)NC(=O)c3nc4ccccc4[nH]3)c2C(=O)O)cc1,1.4%
Cc1ccccc1NC(=O)CN1C(=O)C(c2ccccc2)=NC12CCCCCC2,-0.2%
COc1cccc(-c2cc3c(=O)n(CCNC(=O)c4cc(Cl)ccc4F)ccn3n2)c1,u
CCCCCNC(=O)Cc1csc2nc(C)c(-c3cc(C)n(-c4cccc(C)c4C)n3)c(=O)n12,4.1%
COc1ccc(CC(=O)Nc2ccc([C@@H](O)[C@H]3COCC(=O)N3C)cc2)cc1,3.4%[70.6 µM]
Cc1noc(C)c1NC(=O)N[C@@H]1C[C@H](Cn2cc(-c3cccnc3)nn2)[C@@H](O)[C@H]1O,5.7%

Next part
SMILES,hNpr1 antagonist
COCCOCc1nc(C2CCCCN2C(=O)Nc2ccc(OC)c(F)c2)no1 (configuration not stated),6.1%
CC(C)C[C@H](CO)NC(=O)C[C@@H]1c2nc(NC(=O)CC(C)(C)C)sc2C[C@@H]2[C@](C)(CO)[C@H](O)CC[C@]21C,-0.2%
C[C@@H]1CN(C(=O)CCc2cnccn2)CC[C@@]1(O)C1CCOCC1,23.5%
COCc1ncc(C)n1CCNC(=O)c1ccc(C)[nH]c1=O,1.2%
O=C(c1[nH]nc2c1COc1ccccc1-2)N1CC(c2noc(COc3ccc(F)cc3)n2)C1,-13.5%
COc1ccc(CNC(=O)Cn2nc(C)c3sc(C(C)C)nc3c2=O)cc1,2.0%
CCc1cccc(C)c1NC(=O)Cn1ccn2nc(-c3ccccc3)c(CO)c2c1=O,8.8%
COc1ccccc1C(=O)N[C@H]1[C@H](O)[C@H](O)C[C@@H]1c1ccc(C(F)(F)F)cc1,-21.9%[70.6 µM]
Cc1noc(C2CCCCN2C(=O)c2ccoc2)n1 (configuration not stated),2.0%
COCCn1cnc2ccc(-c3ccc(F)c(Cl)c3)nc2c1=O,-1.9%[70.6 µM]
O[C@@H]1CN(Cc2cccn2-c2ccccn2)CC[C@H]1c1ccc2c(c1)OCO2,-1.1%
COc1ccc(C(=O)NCc2nnc3c(-c4nc(C(C)C)no4)cccn23)cc1F,-2.9%
COc1ccc(NC(=O)NC[C@H]2O[C@H](Cc3cc(-c4cccc(O)c4)on3)CC[C@@H]2O)cc1,11.2µM*
Nc1nc(C2CC(NC(=O)c3csc4c3CCCC4)C2)cc(=O)[nH]1 (configuration not stated),-8.1%
CCCN(C)C(=O)CC1COc2ccc(C(=O)NCCOC)cc2N1C (configuration not stated),0.0%
Cc1c(F)cccc1NC(=O)N1CCCC(Cn2cnc3cccnc32)C1 (configuration not stated),-11.1%
COc1ccc(NC(=O)N2CCCC(c3nc(C4CCOCC4)no3)C2)cc1 (configuration not stated),0.3%
COCCN1CCC2(CCC1=O)CCN(S(=O)(=O)c1ccc3c(c1)OCCO3)CC2,u
CCn1cc(CN2CCC(Oc3ccc4ccccc4c3)(C(=O)O)CC2)cn1,-2.6%
Cc1ccc(C2(O)CCN(C(=O)c3cccc(-c4ncc[nH]4)c3)CC2)nc1,1.0%
COc1ccc(NC(=O)c2ccc(-c3nnc4ccc(NC(=O)C5CCC5)cn34)cc2)cc1,-30.2%
Cc1ncc2c(c1CNC(=O)c1cc(F)cc(Cl)c1)CCNC2,0.0%
O=c1cc(C2CC(NC3CCC4(CCNCC4)CC3)C2)nc(C2CC2)[nH]1 (configuration not stated),-0.3%
COc1cccc([S+](=O)([O-])N2CCCC3(CC(Cc4ccccc4)=NO3)C2)c1 (configuration not stated),0.0%

As entered above.
In hNpr1 antagonist, Cc1ccc(C2(O)CCN(C(=O)c3cccc(-c4ncc[nH]4)c3)CC2)nc1 is entered as 1.0%
In hNpr1 antagonist, COc1ccc(NC(=O)N2CCCC(c3nc(C4CCOCC4)no3)C2)cc1 (configuration not stated) is entered as 0.3%
In hNpr1 antagonist, Nc1nc(C2CC(NC(=O)c3csc4c3CCCC4)C2)cc(=O)[nH]1 (configuration not stated) is entered as -8.1%

(more compounds)
SMILES,hNpr1 antagonist
COc1ccc(NC(=O)[C@@H]2C[C@@H](c3ccc(F)cc3)N([S+](=O)([O-])c3cccnc3)C2)c(C)c1,-9.5%
Cc1nc([C@@H]2CN(C(=O)c3cccs3)C[C@H]2C(N)=O)n[nH]1,-13.9%
COCC1CN(C2CCC2)CC12CCN(C(=O)c1cnc(C)cn1)CC2 (configuration not stated),-8.1%
CN(C)c1cccc(-c2cnc(Nc3ccc4c(c3)OCCO4)c3c2CCO3)c1,u
O=C(c1ccncn1)N1C[C@@H](COCC2CC2)[C@H](c2ccncc2)C1,1.6%
O=C1NC2(CCCN([S+](=O)([O-])c3cccc(C(F)(F)F)c3)C2)COc2ccccc21 (configuration not stated),-2.1%
COc1ccc(-c2ccc3ccccc3n2)c(OC)c1OC,-0.4%
Cc1ccc(O)c(CN2CCCC(c3nc(CC(C)C)no3)C2)c1 (configuration not stated),-4.3%
COCCN1C(=O)[C@@H]2C[C@@H](CN2S(C)(=O)=O)Oc2ccccc21,-12.6%[70.6 µM]
CN1CCN(c2ccc(-c3nccc4c(=O)cc(N(C)c5ccccc5)oc34)cn2)CC1,-1.3%[70.6 µM]
CN(Cc1cnccn1)C(=O)c1cc(CN2CCC(Cc3ccccc3)CC2)on1,-4.9%
COc1cccc(CN2Cc3cc(NC(=O)c4ccc([N+](=O)[O-])cc4)ccc3OC(C)C2=O)c1OC (configuration not stated),-2.8%
CS(=O)(=O)c1ccc(-c2cnc([C@@H]3COCCN3Cc3ccccc3O)[nH]2)cc1,1.8%[70.6 µM]
Cn1cc(CNC(=O)C[C@@H]2C[C@H]3O[C@H](CNC(=O)Nc4cccs4)[C@@H](O)[C@H]3O2)cn1,-2.9%
CN(C)C(=O)c1cccnc1OC1CCN(C(=O)c2ccoc2)C1 (configuration not stated),-6.6%
O=C(NCCCN1CCOCC1)c1ccc2c(c1)N(S(=O)(=O)c1ccccc1F)CC2,2.9%
CN1CCN(c2nc3c(c(=O)[nH]2)CCN(Cc2cc(F)cc(F)c2)CC3)CC1,2.7%
COCCCNC(=O)N1Cc2ccccc2OC2(CCN(C(C)C)CC2)C1,-11.9%
COc1ccc(-c2cc(-c3cccnc3OC)cn3cncc23)cc1,-19.8%[70.6 µM]
CN(Cc1cccn1C)C(=O)c1ccccc1,0.8%[70.6 µM]
COCC(=O)N1CCCC(C(=O)NCc2ccc3nsnc3c2)C1 (configuration not stated),1.9%
Cc1ccc(C(=O)N2CCC(N3C(=O)C4(CCCCC4)C3c3ccncc3)CC2)s1 (configuration not stated),0.5%
CN(CC1(C)CCOCC1)C(=O)c1ccc(C#N)cc1,2.9%
COc1ccc(-c2noc(-c3cccn3CC(=O)N(C)c3ccc(F)cc3)n2)cc1F,-3.2%
CCC1=C(C(=O)OC)C(c2ccc(OC)cc2)N2C(CC(=O)NCC3CC3)=CSC2=N1 (configuration not stated),-27.8%
Cn1c(CN2CCOCC2)nnc1C1CCN(c2ncccc2C#N)CC1,3.7%

An excerpt (hit frequency here may not be typical).
